Cruzain noTriton: inhibitors of Trypanosoma cruzi cruzain without detergent. purified cruzain, Z-FR-AMC fluorescence, no detergent. Potency, µM, inactives show max response, negative = inhibition, actives largely listed as inhibitors. hit rate 2.3% among 200,000. AID 1476;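 further: plate controls were enzyme without inhibitor for no effect and buffer without enzyme for full effect; nearly all actives have a fitted effect of over 40% in size; top concentration of the series not given in the record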
Target sequence (P25779 123-467 limits assumed): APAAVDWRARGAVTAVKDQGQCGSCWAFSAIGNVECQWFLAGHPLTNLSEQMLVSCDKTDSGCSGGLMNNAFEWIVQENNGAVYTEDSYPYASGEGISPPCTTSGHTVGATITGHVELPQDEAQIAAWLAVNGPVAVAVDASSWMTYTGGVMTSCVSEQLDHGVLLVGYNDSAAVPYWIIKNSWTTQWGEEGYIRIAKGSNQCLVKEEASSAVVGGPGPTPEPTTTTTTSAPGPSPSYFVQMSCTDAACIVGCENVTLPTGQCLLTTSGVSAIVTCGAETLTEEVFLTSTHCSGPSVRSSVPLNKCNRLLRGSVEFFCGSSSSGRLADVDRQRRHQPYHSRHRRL
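Detergent-free condition (0.00005% Triton X-100) in acetate buffer pH 5.5 with DTT. 1.5 nM enzyme and compound were pre-mixed 15 min, then 2 uM Z-FR-AMC substrate added; reaction progress from fluorescence change between first and third reads (60 s).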
RE007 growth inh: less growth of the S. pombe RE007 Vpr strain. S. pombe RE007 Vpr strain, BacTiter-Glo ATP luminescence, 24 h; control for the full effect not named in the record. AID 651644. hit rate 0.21% among 360,000. Potency, µM (doses to about 92.2 µM), without a hit: top-dose activity change, negative = less growth; active = well fitted falling curve with a large enough effect; inconclusive = small, poorly fitted or top-dose-only effect; inactive = no such curve, though single readings can be large or run the other way;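 further: on the % scale 0 is the no-effect control and ±100 the full control effect; nearly all actives have a fitted effect of over 50% in size; the assay follows cell death caused by Vpr and the record does not say whether a fall means rescue or toxicity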
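Fission yeast RE007 carrying one integrated HIV-1 vpr copy, seeded at OD 0.01 in PMG+AL medium with 23 nL pinned compound. Grown 24 h at 30 degrees; viability read by BacTiter-Glo luminescence after 5 min.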
SARS PLpro yeast: inhibitors of SARS-CoV papain-like protease in yeast | S. cerevisiae expressing SARS-CoV PLpro, growth rescue; control for the full effect not named in the record | Potency, µM (top dose mostly 32.9 µM), for inactives: at the top dose activity, positive = growth rescue | hit rate 0.19% among 330,000; active means well fitted rising curve with a large enough effect; inconclusive means small, poorly fitted or top-dose-only effect; inactive means no such curve, though single readings can be large or run the other way; further: 0% is about no effect; nearly all actives have a fitted effect of over 55% in size; growth read by luminescence after 48 h
Cruzain Triton: blocks cruzain activity in presence of Triton detergent | P25779 | purified cruzain, Z-FR-AMC fluorescence, 0.01% Triton | Potency, µM, for the others: max response, negative = inhibition, usual class: inhibitors | hit rate 0.43% among 200,000 | AID 1478;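 further: plate controls were neutral wells for no effect and buffer without enzyme for full effect; nearly all actives have a fitted effect of over 40% in size; top concentration of the series not given in the record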
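Detergent-containing run (0.01% Triton X-100) in acetate buffer pH 5.5 with 5 mM DTT: enzyme at 1.5 nM final, 15 min compound preincubation at room temperature, then 2 uM Z-FR-AMC substrate. Activity taken as 60 s fluorescence increase at 360/450 nm.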
Marburg entry inh: Marburg virus entry inhibition | Marburg virus pseudotyped entry inhibition, cell reporter; control for the full effect not named in the record; about a third of the inactives were read at about 46 µM | Potency, µM (top dose mostly 37.8 µM), for inactives: top-dose activity change, negative = inhibition, hits mostly inhibitors | hit rate 1.8% among 300,000 | AID 540276; active = well fitted inhibition curve with a large enough effect; inconclusive = small, poorly fitted or top-dose-only effect, or effect the other way; inactive = flat fitted curve, though single readings scatter; tested in HEK293 cells; about a fifth of its hits are not listed in these tables; further: on the % scale 0 is the no-effect control and ±100 the full control effect; luciferase read-out
StopGo reporter: lowers the luciferase signal of an FMDV 2A StopGo reporter; human cells with a luciferase reporter of 2A StopGo recoding; control for the full effect not named in the record; Potency, µM (top dose mostly 57.9 µM), for the others: at the top dose signal change, negative = less light; hit rate 1.2% among 410,000; AID 1159524; active = well fitted falling curve with a large enough effect; inconclusive = small, poorly fitted or top-dose-only effect; inactive = no such curve, though single readings can be large or run the other way; tested in HEK293T cells; further: on the % scale 0 is the no-effect control and ±100 the full control effect; nearly all actives have a fitted effect of over 45% in size; luciferase light after 4 h
NS1 inh: inhibitors of influenza NS1 protein function; S. cerevisiae slowed by influenza A NS1, growth recovery by OD600; Potency, µM (titrated, usually from 46.1 µM), inactives show at the highest dose activity, positive = more growth; hit rate 0.4% among 270,000; AID 2326; active means well fitted rising curve with a large enough effect; inconclusive means small, poorly fitted or top-dose-only effect; inactive means no such curve, though single readings can be large or run the other way; further: nearly all actives have a fitted effect of over 50% in size
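Read-out: OD600 growth recovery of NS1-expressing budding yeast. Cells grown overnight at 30C in -URA glucose medium, washed, resuspended and diluted 1:100 in 2% galactose assay medium, pH 6.0. Same strain lacking NS1 served as positive control.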
Lassa entry inh: Lassa virus entry inhibition; Lassa virus pseudotype entry inhibition, cell reporter; control for the full effect not named in the record; Potency, µM (series often up to 37.9 µM), for inactives: top-dose activity change, negative = inhibition, most hits filed as inhibitors; hit rate 1.2% among 300,000; active means well fitted inhibition curve with a large enough effect; inconclusive means small, poorly fitted or top-dose-only effect, or effect the other way; inactive means flat fitted curve, though single readings scatter; tested in HEK293 cells; further: on the % scale 0 is the no-effect control and ±100 the full control effect; nearly all actives have a fitted effect of over 50% in size; luciferase read-out
Numbers without * were called inactive; ? = inconclusive; . = no result given; & = joins results of further samples; [ ] = remark or other dose. Unless noted, the call rests on the fitted dose curve; in most records, active means well fitted curve in the direction sought with a large enough effect; inconclusive means small, poorly fitted or top-dose-only effect, or another doubt; inactive means no such curve, though single readings can be large; an effect the other way counts as inactive or inconclusive. Potency means the concentration at half of the fitted maximal effect. Rows are unselected, and some 4.6% of all compounds hit somewhere here.

SMILES	Cruzain noTriton	RE007 growth inh	SARS PLpro yeast	Cruzain Triton	Marburg entry inh	StopGo reporter	NS1 inh	Lassa entry inh
CCNC(=O)CN(c1ccc(C)cc1)S(=O)(=O)c1ccccc1	-4%	9%	1%	5.0%	-25%[46.1 µM]	19%	2%	1%
CCC(=O)Nc1nc(C)c(-c2csc(Nc3ccccn3)n2)s1	.	10%	-4%	.	?	27%	.	?
CCC(/C=N/NC(=O)C1COc2ccccc2O1)CC (stereo not drawn)	-3%	21%	17%	0.8%	?	45%[activator]	-2%	-7%
O=C(O)c1cnn2c(C(F)(F)F)cc(-c3ccccc3)nc12	-2%	-2%	4%	-3.8%	-1%	-17%	-2%	5%
Cc1ccc(NS(=O)(=O)c2ccc3[nH]c(=O)oc3c2)c(C)c1	-2%	0%	-2%	-0.8%	.	0%&13%	-5%	5%[46.1 µM]
Cc1ccc(S(=O)(=O)c2nc(-c3cccs3)oc2N2CCC(C(N)=O)CC2)cc1	.	-20%	1%	.	-3%[46.1 µM]	1%	.	-10%[46.1 µM]
NS(=O)(=O)c1ccc(CNC(=O)/C=C/c2c(F)cccc2Cl)cc1	.	-6%	0%	.	8%	16%	1%	-3%
O=C(CSc1nncs1)NNC(=O)c1ccccc1Br	.	2%	-3%	.	-17%[46.1 µM]	-8%	.	12%[46.1 µM]
CCC(Sc1nncn1C)C(=O)Nc1nnc(-c2ccc(Cl)cc2)s1 (stereo not drawn)	?	-22%	-14%	-3.3%	.	9%	-53%	.
CN(Cc1ccccc1)C(=O)c1cccc(NC(=O)c2nsc3ccccc23)c1	-13%	.	.	-5.9%	.	-1%	.	?
CCc1ccc(NC(=O)CSc2nnc(C)c(=O)n2N)cc1	.	6%	?	.	16%[46.1 µM]	3%	18%	24%[46.1 µM]
O=C(CCC(=O)Nc1ccc(Br)cc1)N/N=C/c1ccccc1O	.	5%	2%	.	?	24%	3%	?
O=C(NC1=NCCS1)c1cc(-c2cccs2)nc2ccccc12	.	-11%	-4%	.	?	-16%	-2%	-18%
CC1(C)Cc2cccc(OCC(=O)NCc3cccs3)c2O1	.	12%	13%	.	-10%	-19%	.	?
O=C(NC1CCCCC1)c1ccc(Cn2cc(Br)cn2)o1	3%	-24%	-3%	-5.5%	-23%	-2%	-45%	-4%
COC(=O)CNC(=O)c1cccs1	-6%	6%	.	0.9%	-16%[46.1 µM]	9%	15%	3%
CC1(C)C(c2cccs2)=[N+]([O-])C2(CCCCC/C2=N\NC(N)=O)N1O (stereo not drawn)	-8%	2%	-3%	0.8%	24%	2%	-4%	-4%
Cc1cnc(C(=O)OCC(=O)NCCc2ccccc2)cn1	10%	15%	-5%	2.5%	?	-10%	3%	3%
COc1ccccc1N1CCN(S(=O)(=O)CCNC(=O)COc2ccccc2F)CC1	?	.	.	-2.4%	.	-10%	.	24%[46.1 µM]
CCOC(=O)c1cc(C#N)c(SCC(N)=O)[nH]c1=O	.	-13%	0%	.	.	1%	2%	.
CCOC(=O)c1ccc(NC(=O)C(=O)NCC2CCCO2)cc1 (stereo not drawn)	3%	4%	-2%	3.0%	?	0%	-8%	8%
O=c1c2ccccc2nnn1CSc1nnc(Nc2ccccc2)s1	-6%	12%	-1%	4.5%	-5%	19%	0%	-2%
CCCNC(=O)c1cc(SC)ccc1Cl	7%	14%	1%	0.1%	2%	-14%	-3%	.
O=C(COc1cccnc1[N+](=O)[O-])Nc1ccc2c(c1)OC(F)(F)O2	12%	-19%	-9%	-4.4%	21%	4%	-3%	11%
Cc1ccc(C)c(NC(=O)CN(C)S(=O)(=O)c2ccc(F)cc2)c1	-10%	10%	2%	3.3%	6%	.	-3%	-2%
CC(NC(=O)c1sc2ccccc2c1Cl)C1CCCO1 (stereo not drawn)	7%	-10%	3%	-4.5%	7%	29%	-2%	-1%
O=C(NNC(=O)c1cc(OCC(F)(F)F)ccc1OCC(F)(F)F)c1ccc(Cl)c(Cl)c1	11%	?	-1%	-15%	-25%	5%	-19%	-8%
CC(=O)N/C(=C/c1ccc(OC(F)F)cc1)C(=O)O	1%	-4%	-8%	0.4%	1%	-16%	-2%	10%
Cc1ccnc(SCCn2c(N3CCC(C)CC3)nc3c2c(=O)n(C)c(=O)n3C)n1	.	0%	.	.	-10%	-21%	-11%	?
CN(C)c1cccc(C(=O)OCCNC(=O)c2cccc(S(=O)(=O)N3CCOCC3)c2)c1	.	14%	2%	.	.	-6%	0%	.
COC(=O)c1ccc(NC(=O)CN2CCN(c3ccccc3C)CC2)cc1	6%	13%	3%	-4.5%	?	?	-29%	-8%
COc1cc(C)c(NC(=S)Nc2ccc(Cl)c(Cl)c2)cc1OC	-5%	-23%	-57%	-2.4%	10%	-9%	-33%	6%
Cc1[nH]c2ccc(F)cc2c(=O)c1SC(F)(F)C(F)F	-3%	-5%	-1%	8.5%	5%	13%	-7%	8%
CCCn1c(=O)c(C(=O)NCc2cccnc2)c(O)c2ccccc21	?	-4%	1%	-6.5%	-27%	.	-8%	-11%
Cn1c(=O)c2c(nc(C3CC4C5CCC(C5)C4C3)n2C)n(C)c1=O (stereo not drawn)	.	8%	.	.	23%	-24%	.	5%
COc1ccc(C(=O)OCCN2CCOCC2)cc1OC	-8%	-9%	-2%	5.9%	?	-5%	-16%	15%
O=CN1CCN(C(=O)CC(c2ccccc2)c2cc(Br)ccc2O)CC1 (stereo not drawn)	.	-17%	-5%	.	.	-5%	-1%	.
Cc1ccc(NC(=O)CN(C)C(=O)CSc2nc3ccccc3o2)cc1	-1%	-1%	-6%	-2.5%	?	-14%	-16%	5%
CCOc1ccc(Nc2nc(NCc3ccco3)nc(N)c2[N+](=O)[O-])cc1	.	-9%	0%	.	-4%[46.1 µM]	-1%	4%	-4%
C/C(=C\C(=S)Nc1ccccc1)Nc1ccc2ccccc2c1	-3%	?	-89%	-3.7%	-3%	20%	-45%	14%
COC(=O)NNC(=O)COc1cc(C)ccc1C	3%	-8%	-9%	-0.1%	-2%	3%	-12%	-2%
O=P(Oc1ccccc1)(Oc1ccccc1)N1CCOCC1	.	26%	.	.	12%	-14%	.	-23%
CC(C)(C)c1ccc(/C([O-])=C(/C(=S)NCc2ccco2)[n+]2ccccc2)cc1	?	.	-4%	-6.9%	-5%	.	14%	.
Cc1nn(C(=O)/C(C#N)=C/N(C)C)c(C)c1C	.	61%	1%	.	0%[14.2 µM]	2%	.	9%
Cc1nc(C)n(C(C)CC(=O)O)n1 (stereo not drawn)	4%	3%	-2%	-1.4%	-1%	14%	2%	16%
COc1ccc(C2C(C(=O)c3ccco3)=C(O)C(=O)N2CCN2CCOCC2)c(OC)c1 (stereo not drawn)	.	24%	-1%	.	3%[46.1 µM]	2%	4%	-25%
CC(C)c1ccc(CN2CC(C(=O)O)CC2=O)cc1 (stereo not drawn)	9%	10%	-12%	2.0%	1%	11%	-3%	-3%
CCC(=O)Nn1c(C)nnc1C	0%	-7%	2%	0.1%	17%	0%	0%	18%
Cc1c(NC(=O)C(C)OC(=O)c2cc(Cl)ccc2O)c(=O)n(-c2ccccc2)n1C (stereo not drawn)	.	-13%	-1%	.	3%	-14%	23%	-5%
COc1ccc(C(=S)N2CCN(c3cccc(Cl)c3)CC2)c(OC)c1	.	-3%	1%	.	?	-21%	.	?
Oc1ccc(N=Cc2ccc(O)c(O)c2)cc1	?	-8%	-12%	-15%	?	-16%	4%	?
O=C(O)COc1ccc(/C=N/NC(=O)Cc2ccc(Cl)cc2)cc1	.	13%	0%	.	?	-21%	1%	-6%[46.1 µM]
Cc1ccc(S(=O)(=O)Nc2cccc(C(=O)NC3CCN(Cc4ccccc4)CC3)c2)cc1F	.	5%	6%	.	?	?	.	?
COc1ccc(N2CC(C(=O)NCc3ccco3)CC2=O)cc1 (stereo not drawn)	.	-6%	1%	.	0%[46.1 µM]	-2%	10%	-9%[46.1 µM]
COc1ccccc1C(=O)Nc1ccc2oc(-c3cccc(Cl)c3Cl)nc2c1	5%	.	.	0.7%	.	6%	.	2%[46.1 µM]
O=C(NCc1ccc(Cl)cc1)C1CCC(CNS(=O)(=O)c2ccccc2)CC1 (stereo not drawn)	-10%	0%	5%	-1.0%	.	-23%&-24%	2%	-15%[46.1 µM]
CCC(=O)N1c2ccccc2CC1C(=O)NCCCN1CCN(c2ccc(OC)cc2)CC1 (stereo not drawn)	5%	.	.	1.0%	.	7%	.	20%[46.1 µM]
Cc1ccc2c(c1)N(CC(=O)N1CCCCCC1)C(=O)CO2	5%	0%	-3%	2.7%	?	-18%	-2%	-30%[14.3 µM]
CC1CCC2(CC1)NC(=O)N(Cc1nc(-c3ccccc3)no1)C2=O (stereo not drawn)	-6%	-5%	-1%	1.2%	9%	?	8.9µM*	7%
COc1cccc(NC(=O)n2nc(N)cc2-c2ccc(Cl)cc2)c1	2%	5%	-1%	-0.7%	.	-1%	-4%	.

Later entries.
SMILES	Cruzain noTriton	RE007 growth inh	SARS PLpro yeast	Cruzain Triton	Marburg entry inh	StopGo reporter	NS1 inh	Lassa entry inh
O=C(NNC(=O)c1cc([N+](=O)[O-])ccc1Cl)c1cccnc1	.	6%	-4%	.	.	15%	-13%	.
Cc1cccn2c(CNCCc3ccco3)c(C(=O)N3CCOCC3)nc12	.	-18%	2%	.	5%	-9%	3%	2%
CCOC(=O)C(NC(=O)Nc1ccc(O)cc1)(c1ccccc1)C(F)(F)F (stereo not drawn)	6%	.	23%	-1.0%	?	-24%	-5%	-3%
CCCC(NC(=O)C(C)N1CCN(S(=O)(=O)c2ccccc2)CC1)c1ccccc1 (stereo not drawn)	.	-1%	-3%	.	?	-7%	.	?
COC(=O)CCCCCNC(=S)Nc1ccc2[nH]c(=O)[nH]c2c1	.	-3%	0%	.	.	-12%	?	.

Bioassay records as filed in PubChem.
